# Source: PubChem BioAssay
# Choline anaer gr = growth inhibitors of anaerobic choline-fed gram-negatives, minimal medium, absorbance. Gram-negative bacterium anaerobic choline minimal medium; stronger effect = lower value; many inactives read as strong as hits in the columns shown. calls only. hit rate 0.2% among 55,000. AID 1963822, 2024;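 active means growth z-score on choline under -2 at 7 or 20 h with little or no fall on glycerol, limits in tiers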;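 further: stock transfer was 300 nL into about 50 µL; the organism is E. coli; final concentration not given here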
# Choline anaer gr early = also measured in Choline anaer gr; calls as there; z-score; measured here: choline growth z-score, timepoint 1;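 score of optical density at 7 h as mean of two plates; lower means less growth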
# * marks the source's active call; other numbers are inactive results; i = inactive; & = joins results of further samples. Only part of the results is shown (hit frequency here may not be typical).
smiles	Choline anaer gr	Choline anaer gr early
CC(Sc1nc2c(cnn2-c2ccc(F)cc2)c(=O)[nH]1)c1ccccc1 (stereo unspecified)	i	0.74
CCOC(=O)c1c(S(=O)(=O)N2CCCC(C(=O)NCc3ccccc3)C2)c(C)n(CC)c1C (stereo unspecified)	i	-0.18
Cc1nc2nc(-c3ccccc3)nn2c(Sc2ccc(N)cc2)c1C	i	2.7
CC(C)n1c(N2CCN(C(=O)CCC3CCCC3)CC2)cc(=O)n(C(C)C)c1=O	i	0.22
Cc1nn(-c2ccc(Br)cc2)c2nc(-c3ccncc3)cc(C(F)(F)F)c12	i	-0.45
C/C=C/c1ccc(OCCCn2c(CN3CCOCC3)nc3ccccc32)c(OC)c1	i	-2.8
Cc1ccc(C)c(N2CCN(S(=O)(=O)c3c(C)sc(C)c3-c3cc(C(F)(F)F)on3)CC2)c1	i	0.74
COCCNC(=O)c1cc(C)nc2c1c(=O)n(C)c(=O)n2C	i	-0.06

# The list goes on.
smiles	Choline anaer gr	Choline anaer gr early
Cc1nc(-c2cccc(N3CC(C(=O)NCCC4=CCCCC4)CC3=O)c2)no1 (stereo unspecified)	i	1.1
CCCNC(=O)Nc1ccc(-c2noc(-c3cccc(Cl)c3)n2)cc1	i	0.61
COCCCn1cnc2scc(-c3ccccc3)c2c1=O	i	-2.2
O=C(c1cc(-c2cccnc2)n[nH]1)N1CCN(CCOc2ccc(Cl)cc2)CC1	i	-1.1
O=C(NCc1cccc(F)c1)c1ccc2c(c1)sc1nc(-c3ccc(Cl)cc3)cn12	i	0.14
CC(C)(C)Nc1c(-c2ccccc2)nc2sc(N3CCN(CC(=O)Nc4nccs4)CC3)nn12	i	0.78
O=C1C(=O)N(C2CCN(S(=O)(=O)Cc3ccccc3)CC2)CCN1Cc1ccc(F)cc1	i	0.29
CCN(CC)CCCNC(=O)c1cc(C)nc2c(C)cc(C)cc12	i	-1.1

# Next part, starting with the last two of the part before.
smiles	Choline anaer gr	Choline anaer gr early
O=C1C(=O)N(C2CCN(S(=O)(=O)Cc3ccccc3)CC2)CCN1Cc1ccc(F)cc1	i	0.29
CCN(CC)CCCNC(=O)c1cc(C)nc2c(C)cc(C)cc12	i	-1.1
O=c1c2cc3c(nc2ncn1Cc1cc(=O)n2ccccc2n1)CCCC3	i	-0.38
COc1ccccc1CNC(=O)CCC(=O)n1ncc2c(C)cccc21	i	0.56
COc1ccccc1-c1cc(C(=O)Nc2cccc3nsnc23)[nH]n1	i	-0.83
CC(=O)N1c2ccc(S(=O)(=O)N3CCCC3C(=O)NCc3ccc(F)cc3)cc2CC1C (stereo unspecified)	i	0.18
Cc1ccc(-n2nc(N3CCCN(C(=O)c4ccc(-n5c(C)ccc5C)cc4)CC3)ccc2=O)cc1C	i	0.6
CC1CCCN(C(=O)C2CCN(c3cncnc3N3CCOCC3)CC2)C1 (stereo unspecified)	i	-0.2
COc1ccc(OC)c(C(=O)c2c(N)c(-c3nc(-c4ccccc4OC)cs3)c3ccccn23)c1	i	-0.23
O=c1c2cc3c(cc2nc(SCc2nc(-c4ccc5c(c4)OCO5)no2)n1C1CC1)OCO3	i	-1.2

# Following part
smiles	Choline anaer gr	Choline anaer gr early
Cc1nc2ccccc2c(=O)n1Cc1noc(C(=O)NCCC2=CCCCC2)n1	i	-0.06
Cc1noc(C)c1S(=O)(=O)N1CCN(c2cc(-c3ccc(F)cc3)ncn2)CC1	i	0.46
C/C=C/Cn1c(N2CCCCC2)nc2c1c(=O)[nH]c(=O)n2C	i	-0.45
CCOc1cc(C2C3=C(CC(c4ccc(O)c(OC)c4)CC3=O)Nc3onc(C)c32)ccc1OC (stereo unspecified)	i	-0.53
O=c1[nH]cc[nH]c1=O	i	-1.3
C=CCn1c(=O)c2c(nc3n2CCS3)n(C)c1=O	i	0.66
Clc1ccc(Cc2nnc3sc(-c4ccc5ccccc5n4)nn23)cc1	i	-0.76
COc1ccc(-c2nc(CSc3nc4c(c(=O)[nH]3)CN(Cc3ccc(Cl)cc3)CC4)c(C)o2)cc1	i	1.1

# More compounds
smiles	Choline anaer gr	Choline anaer gr early
Cc1cc(C)cc(-n2nnc(C(=O)OCc3ccccc3C)c2C)c1	i	2.1
O=C(CN1N=C(c2ccccc2F)c2cc(Cl)ccc2S1(=O)=O)NCCc1ccccc1	i	1.1
CC(=O)[C@@]12O[C@](C)(c3ccccc3)O[C@@H]1CC1C3CCC4=CC(=O)CC[C@]4(C)C3CC[C@@]12C (stereo partly specified)	i	0.54
O=C(Nc1ccc(F)cc1F)N1CCN(Cc2nc3cccnc3n2-c2cccc(F)c2)CC1	i	-0.35
CN(CCc1noc(COc2ccc(F)cc2)n1)C(=O)C1CCCCC1	i	0.37
Cn1nc(COCc2ccccc2)c2c1CCN(S(=O)(=O)c1ccc(F)cc1)C2	i	-0.3
Cc1cccc(N2CCN(c3c(O)c(=O)c3=O)CC2)c1C	i	0.51
CCOc1ccccc1NC(=O)NCCC1CCN(S(=O)(=O)c2ccc(C)cc2)CC1	i	-0.69

# Next part, starting with the last 6 of the part before.
smiles	Choline anaer gr	Choline anaer gr early
CC(=O)[C@@]12O[C@](C)(c3ccccc3)O[C@@H]1CC1C3CCC4=CC(=O)CC[C@]4(C)C3CC[C@@]12C (stereo partly specified)	i	0.54
O=C(Nc1ccc(F)cc1F)N1CCN(Cc2nc3cccnc3n2-c2cccc(F)c2)CC1	i	-0.35
CN(CCc1noc(COc2ccc(F)cc2)n1)C(=O)C1CCCCC1	i	0.37
Cn1nc(COCc2ccccc2)c2c1CCN(S(=O)(=O)c1ccc(F)cc1)C2	i	-0.3
Cc1cccc(N2CCN(c3c(O)c(=O)c3=O)CC2)c1C	i	0.51
CCOc1ccccc1NC(=O)NCCC1CCN(S(=O)(=O)c2ccc(C)cc2)CC1	i	-0.69
CCCCCC/C=C\CCCC(=O)CC(=O)N[C@H]1CCOC1=O	i	1.5
Cc1nn2c(c1-c1ccc(Cl)c(S(=O)(=O)N3CCCCC3)c1)NC(=O)CCC2=O	i	1.3
Cc1noc2c1C(c1ccccc1F)C1=C(CC(c3ccc(O)cc3)CC1=O)N2 (stereo unspecified)	i	0.82
Cc1ccc(CNS(=O)(=O)c2ccc3c(c2)C(C)(C)CN3CC(=O)N2CCCC2)o1	i	-0.03
CCCc1noc(-c2cc(S(=O)(=O)NCCOC)ccc2OC)n1	i	-1.8
COc1ccc(N2C(=O)CCS2(=O)=O)cc1S(=O)(=O)NCCc1c[nH]c2ccccc12	i	-0.91
CC(C)NC(=O)c1ccc(-c2nc3cc(NS(=O)(=O)Cc4ccccc4F)ccc3n2C)cc1	i	-0.01
CCOc1cccc(CN2C(=O)c3ccccc3CC2(C)C(=O)NCc2ccc(OC)cc2)c1 (stereo unspecified)	i	0.21

# Further entries follow:
smiles	Choline anaer gr	Choline anaer gr early
O=C(c1ccccc1-c1nc(-c2ccc(F)cc2)no1)N1CCCC1	i	-0.27
COc1ccc(-c2nn3c(NCc4ccccc4)cc(C)nc3c2C)cc1OC	i	0.19
Cc1ccc2nc(CCc3ccc(NC(=O)CN4C(=O)COc5ccc(C(C)(C)C)cc54)cc3)[nH]c2c1	i	1.2
Cc1ccc(NC(=O)CSC2=NN3CCCC(=O)N=C3S2)cc1Cl	i	1
Cc1cccc2cc3c(nc12)N(S(=O)(=O)c1ccccc1)CC3	i	-0.58
O=C(c1ccc(Nc2nccc(-c3cc4ccccc4s3)n2)cc1)N1CCC(N2CCCC2)CC1	i	-3.5&-3.6
COc1ccc(NC(=O)Cn2c(=O)c(CCC(=O)NC3CCCC3)nc3ccccc32)cc1Cl	i	-0.06
O=C(CCCc1nc(-c2ccc(Cl)cc2)no1)Nc1nn[nH]n1	i	-1.2

# Carrying on.
smiles	Choline anaer gr	Choline anaer gr early
C[C@]12CCC3c4ccc(O)cc4CCC3C1CCC2O (stereo partly specified)	i	0.45
O=C(Nc1ccc(Br)cc1F)c1nc2ccccc2nc1N1CCCC1	i	1
CCCc1nc2nc(C)c(CC(=O)Nc3ccc(Br)cc3)c(C)n2n1	i	-0.61
CCc1oc2ccccc2c1CC1C(=O)Nc2ccc(Cl)cc21 (stereo unspecified)	i	-0.25
Cc1c(C)n(Cc2ccccc2)c2ccc(C(=O)N3CCN(Cc4ccccc4)CC3)cc12	i	0.44
CCNC(=O)c1cnc2sc3c(n2c1=O)CCCC3	i	-1.4
Cc1ccc(-c2[nH]ncc2CN2CCCC2c2cc(C(C)C)no2)cc1C (stereo unspecified)	i	0.76
COc1ccccc1OCC(O)Cn1cnc2ccccc21 (stereo unspecified)	i	-0.38

# Next compounds follow.
smiles	Choline anaer gr	Choline anaer gr early
O=C(O)CCC/C=C\C[C@@H]1[C@@H](CC[C@@H](O)CCc2cccc(C(F)(F)F)c2)[C@H](O)C[C@@H]1O	i	-0.42
Cc1nc(-c2ccccc2)sc1-c1ccc(SCc2ccccc2)nn1	i	2
Cc1nn(-c2nc3ccccc3n2C)c2c1C(c1ccc(F)cc1F)CC(=O)N2 (stereo unspecified)	i	2
CC(=O)C(C)=O	i	0.14
CCN(CC)CCNCc1ccc(-c2ccccc2)o1	i	0.24
Cc1ccc(C)c(N2CCN(C(=O)CCCN3CCSc4ccccc43)CC2)c1	i	1.3
Cc1nn(-c2ccccc2)c2c1-c1sc(C(=O)NCc3ccc(N(C)C)cc3)cc1CC2	i	-0.21
CC(C)(C)c1ccc(S(=O)(=O)Nc2cnc(N3CCNCC3)c(C(=O)N3CCCC3)c2)cc1	i	-1.6

# (more compounds)
smiles	Choline anaer gr	Choline anaer gr early
Cc1ccc(COC2CN(S(=O)(=O)Cc3ccccc3)C2)cc1	i	0.03
Cc1ccc2c(c1)C=C(C(=O)Nc1ccc(C)c(C)c1)C=CO2	i	0.9
Cc1ccccc1OCCCn1c(CO)nc2ccccc21	i	1.4
CCOc1ccc(-c2noc(CSc3nc4cc5c(cc4c(=O)n3CCC(C)C)OCO5)n2)cc1	i	-0.07
CCOC(=O)c1[nH]c(C)c(CN(Cc2ccc(OC)cc2)C(=O)Nc2ccc(OC)cc2OC)c1C	i	0.12
Cc1ccc(/C=C/c2nc(-c3ccc4c(c3)[nH]c(=O)n4C(C)C)no2)cc1	i	0.8
CCSc1nn(CC(=O)Nc2ccc3c(c2)OCO3)c(N)c1S(=O)(=O)c1ccccc1	i	-0.4
C=Cc1ccc(CSc2nccn3nc(-c4ccccc4)cc23)cc1	i	0.51

# Further records follow.
smiles	Choline anaer gr	Choline anaer gr early
CC(C)NC(=O)c1ccc(-c2nc3cc(NS(C)(=O)=O)ccc3n2C)cc1	i	0.08
Cc1cc(C)n(CC(=O)N(C)CC2(C)CCOCC2)n1	i	-0.72
Cn1c(=O)n(CCC(=O)N2CCCC2)c(=O)c2cc(S(=O)(=O)NC3CC3)ccc21	i	0.07
CC(=O)Nc1cccc(N2CC(C(=O)Nc3ccc(Br)cc3F)CC2=O)c1 (stereo unspecified)	i	-3.1
COc1ccc(-c2noc(N3CCC(C(=O)N4CCN(c5ccccn5)CC4)CC3)n2)cc1OC	i	-1.2
COc1ccc(NC(=O)CSc2nc(N3CCc4ccccc4C3)nc3ccccc23)cc1	i	0.16
COc1ccc2c(c1)c(CC(=O)O)c(C)n2C(=O)c1ccccc1	i	0.28
Clc1ccc2c(c1)nc1n2CCN(C2CCCCC2)C1	i	0.62

# The list continues.
smiles	Choline anaer gr	Choline anaer gr early
O=C(Nc1ccc2ccccc2n1)Nc1nnc(C(F)(F)F)s1	i	0.42
O=C(Nc1ccccc1)c1nnc(C2CCN(C(=O)Nc3ccc(Br)cc3)CC2)s1	i	0.33
CC1(C)C(=O)N(CC(=O)Nc2ccccc2F)c2ccc(S(=O)(=O)N3CCCC3)cc21	i	-0.91
CCOc1ccc(NC(=O)C(CC)n2nc(-c3ccccc3)ccc2=O)cc1 (stereo unspecified)	i	3.6
Cc1c(-c2cc(C(=O)NCC3CCCO3)c3ccccc3n2)cnn1-c1ccc(C(C)C)cc1 (stereo unspecified)	i	-0.27
CC(=O)O[C@@]12CO[C@@H]1C[C@H](O)[C@@]1(C)C(=O)[C@H](OC(=O)O)C3=C(C)[C@@H](OC(=O)[C@H](O)[C@@H](NC(=O)c4ccccc4)c4ccccc4)C[C@@](O)([C@@H](OC(=O)c4ccccc4)C12)C3(C)C (stereo partly specified)	i	0.64
COc1cc(OC)cc(C(=O)Nc2nc(CC(=O)Nc3ccc(OC)c(OC)c3)cs2)c1	i	-0.34
Cn1cc(-c2nc(-c3cccc(Cl)c3)no2)c(=O)c2cc(F)c(N3CCCC3)cc21	i	0.54

# Further entries follow.
smiles	Choline anaer gr	Choline anaer gr early
CCCC(NCc1ccc2c(c1)n(C)c(=O)n2C)c1ccccc1 (stereo unspecified)	i	0.4
COc1cc(NC(=O)CSc2ncnc3nc(N(C)C)sc23)cc(OC)c1	i	0.58
CCc1ccc(NC(=O)COc2cccc3c(=O)n(C)ccc23)cc1	i	2.8
Fc1ccccc1CN1CCN(Cc2c[nH]c3ccccc23)CC1	i	-1.6
O=C(NCCn1c(-c2ccccc2)nc2cccnc21)c1ccccc1Br	i	-0.34
Cc1c(C(=O)N(Cc2ccc(N(C)C)cc2)CC2CCCO2)oc2cc(Br)ccc12 (stereo unspecified)	i	1.1
Cc1cc(C)cc(N2CC(c3nnc(NC(=O)c4c(-c5ccccc5)noc4C)s3)CC2=O)c1 (stereo unspecified)	i	-0.12
CN1CCN(C(CNS(C)(=O)=O)c2ccc(N(C)C)cc2)CC1 (stereo unspecified)	i	-1.4

# The list continues:
smiles	Choline anaer gr	Choline anaer gr early
Cc1nn(-c2nc3ccc(Br)cc3s2)c2c1C(c1c(F)cccc1F)CC(=O)N2 (stereo unspecified)	i	0.34
CC(C)NC(=O)Cn1c(=O)n(-c2ccc(CC(=O)NC3CC3)cc2)c(=O)c2ccccc21	i	0.31
Cn1c(=O)c(-c2noc(C(=O)NCCCN3CCCC3)n2)nn(-c2ccccc2)c1=O	i	-0.44
COc1ccc(S(=O)(=O)c2c(C)cc(C)n(CC(=O)Nc3cc(Cl)ccc3OC)c2=O)cc1	i	0.52
COC(=O)CN(c1nc2nc(C)c(Cl)c(C)n2n1)S(=O)(=O)c1ccccc1	i	-0.49
